High-throughput results from PubChem BioAssay.
Ab BasE inh – BasE siderophore enzyme inhibitors, primary screen, biochemical, Acinetobacter baumannii ATCC 17978, fluorescence polarization; purified BasE, fluorescence polarization binding displacement; inhibition, % (test concentration not listed); hit rate 0.1% among 84,000;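 active = both replicates above 25% with normal brightness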;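 note: 0% = negative plate control signal and 100% = positive plate control signal; stock transfer was 100 nL into about 30 µL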
KSHV LANA nucl – inhibitors of KSHV LANA-nucleosome binding, primary screen, biochemical, fluorescence polarization, FITC-LANA1-23, chicken nucleosomes | FITC-LANA1-23 / chicken nucleosome fluorescence polarization; hits give low values | z-score (test concentration not listed) | hit rate 0.3% among 51,000 | AID 720717, 2013;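 active = both repeat wells score below -2 in polarization z-score versus plate sample wells, excluding overly bright wells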;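 note: 100 nL library stock added to about 30 µL; numbers are from one replicate; some results filed as inactive read as strong as hits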
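System – purified chicken nucleosomes with FITC-labelled LANA N-terminal peptide (1-23) · Amount – 240 nM purified chicken nucleosomes (480 nM peptide binding sites), final · Also added – 50 nM FITC-LANA1-23 probe · Medium – TEN-BT buffer, pH 7.5 · Incubation – compound with peptide–nucleosome mix 10–45 min at room temperature · Detection – fluorescence polarization, ex 480 nm, em 535 nm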
Numbers without * were called inactive; x = not tested or not shown; & = joins results of further samples. Not all compounds are listed; rates above refer to the full screens.

SMILES	Ab BasE inh	KSHV LANA nucl
COc1ccc(CNC(=O)C(C)n2nnc(-c3ccc(OC)c(OC)c3)n2)cc1 (stereo not given)	0.2	x
CCCCn1c(=O)n(C)c(=O)c2c1nnn2CC(=O)N1CCCc2ccccc21	2.5	x
CC(C)CCn1c(O)c(N=NC(=O)Cn2ccc(C(F)(F)F)n2)c2ccccc21	-0.7	x
CCCn1c(N2CCN(CC(=O)NCc3cccs3)CC2)nc2ccccc21	-2.1	-0.83
CC(CC(=O)Nc1ccccc1)c1ccccc1 (stereo not given)	-1.3	2
NC(=O)NC1C(=O)c2ccccc2OC1c1ccccc1 (stereo not given)	1.6	x
O=C(CCC1COc2ccccc2O1)Nc1ccc(C(=O)O)cc1 (stereo not given)	-1.7	-0.63
CCN(CC)c1ccc(NC(C)=O)c(C)c1	0.5	0.11
NC(=O)COC(=O)COc1ccc(OCc2ccccc2)cc1	3.1	x
O=c1[nH]c2ccccc2n2nnnc12	-0.3	-1.2
Nc1cc(-c2ccccc2)no1	0.1	x
COc1cc(CC(=O)O)cc(OC)c1OC	1.4	x
CCOC(C)=C(C#N)C#N	2.4	x
O=c1[nH]c(SCC2CCCCO2)nc2ccccc12 (stereo not given)	1.3	x
COC(=O)Cn1c2ccccc2c2nc(C)sc21	1.6	-0.19

Some of these compounds in order of the KSHV LANA nucl value, ascending:
SMILES | KSHV LANA nucl
O=c1[nH]c2ccccc2n2nnnc12 | -1.2
CCCn1c(N2CCN(CC(=O)NCc3cccs3)CC2)nc2ccccc21 | -0.83
O=C(CCC1COc2ccccc2O1)Nc1ccc(C(=O)O)cc1 (stereo not given) | -0.63
COC(=O)Cn1c2ccccc2c2nc(C)sc21 | -0.19
CCN(CC)c1ccc(NC(C)=O)c(C)c1 | 0.11
CC(CC(=O)Nc1ccccc1)c1ccccc1 (stereo not given) | 2

Further records:
SMILES	Ab BasE inh	KSHV LANA nucl
CCC(NC(=O)NCc1cccnc1)(C(F)(F)F)C(F)(F)F	4.0	-0.73
O=c1[nH]nc(-c2cccs2)c2ccccc12	0.1	x
Cc1cc(/C=N/NC(=S)NCC2CCCO2)c(C)n1CC(C)C (stereo not given)	0.4	x
CCOC(=O)c1cn(CC(=O)Nc2ccccc2CC)nn1	-0.8	0.76
O=c1[nH]c(=O)n(Cc2ccco2)c2c1C(C(F)(F)F)(C(F)(F)F)N=C(CCC1CCCCC1)N2	-0.7	x
CCn1c2ccccc2c2nc3cc(C(=O)O)ccc3nc21	2.2	x
CCC(Oc1ccccc1)c1nc(-c2ccc(OC)c(OC)c2)no1 (stereo not given)	-0.1	-1.1
CCN1C(=O)CC(Sc2ccccc2N)C1=O (stereo not given)	1.0	0.42
COc1ccc2c(c1)C(=O)CC(c1ccc(OC)c(OC)c1)O2 (stereo not given)	0.9	-1.3
CC(C(=O)NCc1ccc2c(c1)OCO2)N1CCN(c2ccc(O)cc2)CC1 (stereo not given)	1.2	x
COC(=O)CSc1nc2ccccc2c(=O)n1-c1ccccc1	1.3	0.3
NC1=NC(=O)/C(=C/c2ccccc2OCC(=O)Nc2ccc(F)cc2)S1	-2.4	x
c1ccc(Cn2c(SCCOc3ccccc3)nnc2-c2ccco2)cc1	-3.6	x
CCC(c1nnnn1C(C)(C)CC)N(Cc1cc2ccc(C)cc2[nH]c1=O)C1CCCC1 (stereo not given)	2.2	-1.1
C#CCn1c(=NC(=O)C2COc3ccccc3O2)sc2cccc(OC)c21 (stereo not given)	0.9	-1.9
O=C(Nc1ccc(N2CCN(Cc3ccccc3)CC2)cc1)Nc1ccc(C(F)(F)F)cc1	3.5	x
CCOC(=O)N1CCC(NC(=O)c2ccc3c(c2)C(=O)N(C2CCN(C(=O)OCC)CC2)C3=O)CC1	1.1	-0.003
COCC(=O)Nc1cccc(NC(C)=O)c1	1.4	0.21
CC(=O)n1c(=O)c2ccccc2c(=O)n1-c1ccccc1	3.2	1.2
Cn1c(C2CC(=O)N(Cc3cccs3)C2)nc2ccccc21 (stereo not given)	-16	-1.9
Cc1cccc(OCCOc2ccc(Br)cc2/C=C2\SC(=S)NC2=O)c1	0.1	x
N#CC1=C(N)SC(N)=C(C#N)C1c1cccc(C(F)(F)F)c1	-53	x
O=C(NC1CCN(Cc2ccccc2)CC1)c1cn(-c2ccccc2)nc1-c1cccs1	-1.2	x
CSCc1c(C(=O)Nc2ccc(NC(C)=O)cc2)oc2ccccc12	1.0	x
CC(=O)Nc1ccc(Nc2ncnc3ccc(Br)cc23)cc1	1.3	0.033
O=C(O)CNCC1COc2ccccc2O1 (stereo not given)	-2.3	-0.76
CCOc1ccc(-c2cc(NC(=O)c3noc4c3CCCCC4)on2)cc1OCC	1.7	x
C=CCn1c(=S)sc2c(=O)[nH]c(C)nc21	1.0	x
O=C1OC(c2ccccc2)=C/C1=C/N1CCOCC1	1.6	-1.2
O=C1C2CCCN2C(=S)N1C1CCCCC1 (stereo not given)	-2.1	2.7
CN(C)C=NC1=C(c2ccccc2)C(=O)c2ccccc21	0.7	x
CCC1CCCCN1C(=O)c1cc2ncc(Br)cn2n1 (stereo not given)	-0.4	0.18
O=C(CN1C(=O)c2ccccc2C1=O)Nc1nccs1	1.7	x
CN1N=C(c2cccs2)CSC1=NCc1ccccc1	-1.0	x
Cc1ccc(C(=O)N2N=C3c4ccccc4S(=O)(=O)N3C2N2CCCCC2)cc1 (stereo not given)	0.1	x
CC(=O)Oc1cc(C)c(OC(C)=O)c(C)c1C	x	-0.66
Oc1cccnc1NC(c1ccc(F)cc1)c1ccc2cccnc2c1O (stereo not given)	2.3	x
O=c1c(/C=N/O)coc2ccccc12	1.4	x
O=S1(=O)CCC(SCc2nnc(-c3ccccc3)o2)C1 (stereo not given)	2.1	-0.37
CC(=O)Nc1ccccc1C(=O)N1CC2(C)CC1CC(C)(C)C2 (stereo not given)	-1.6	-1.1
C/C(N)=C(/C#N)C(=O)CSc1nnc(COc2cc(C)ccc2C)o1	-0.1	x
Cc1ccc(-n2c(C)cc(CC#N)c2C)cc1	0.1	x
N#Cc1ccccc1OCC(=O)OC1CCOC1=O (stereo not given)	1.2	x
Cc1onc(-c2ccccc2Cl)c1C(=O)NC(=S)NCc1ccco1	3.0	x
NC(=O)C(CNS(=O)(=O)c1ccc(Cl)cc1)Sc1ncccn1 (stereo not given)	-3.7	2
Nc1nc(SCC(=O)N2CCc3ccccc32)n[nH]1	3.2	0.18
Cc1ccc(C)c(Oc2coc3cc(OC(=O)c4ccco4)ccc3c2=O)c1	-1.9	1.5
Cc1ccc(C(=O)NC(C)c2ccncc2)cc1 (stereo not given)	1.1	0.79
CCOC(=O)C1=C(CC)Nc2ccccc2N=C1NC(=O)c1cccc(S(=O)(=O)N2CCCC2)c1	2.9	x
COC(=O)C1C(=O)NCC1c1ccc(OC)cc1 (stereo not given)	1.7	0.014
CC(=C/c1ccccc1)/C=N/n1c(C)n[nH]c1=S	2.9	-0.55
CCc1ccc(OC)c(-c2csc(N)n2)c1	-0.5	0.94
Cc1cc(C)n(CC(=O)N/N=C/c2ccccc2)n1	1.9	-0.14
CC(NC(=O)c1ccccc1NC(=O)c1ccco1)C(=O)NN(c1ccccc1)c1ccccc1 (stereo not given)	0.7	x
Cn1c(-c2ccccc2)nn(CN2CCC(C(N)=O)CC2)c1=S	1.1	x
Cc1noc(C)c1COc1ccccc1C(=O)N1CCCc2ccccc21	-0.4	x
COc1ccc2c(c1)CCc1cn3ncc(C#N)c3nc1-2	x	0.15
Cc1ccc(-n2c(SCc3ccc(C#N)cc3)nc3ccccc32)cc1	3.7	x
CC(OC(=O)CSc1nc2ccccc2o1)C(=O)Nc1ncc(Cl)cc1Cl (stereo not given)	-1.2	x
CCOc1ccc2ccccc2c1/C=C(\C#N)C(=O)NCc1ccco1	-0.4	-0.23

Later entries:
SMILES	Ab BasE inh	KSHV LANA nucl
O=C(NCc1ccncc1)c1cc(C(=O)C2CC2)c[nH]1	x	-0.31
O=C1CC(c2cccc(Br)c2)n2ncnc2N1 (stereo not given)	0.5	-0.77
COc1ccc(NC(=O)c2nn(-c3ccccc3)ccc2=O)cc1	-1.0	0.1
COc1ccccc1C1C(C(=O)c2sc(C)nc2C)=C(O)C(=O)N1CCCN1CCOCC1 (stereo not given)	0.1	2.5
NNc1ncc(Cl)cc1C(F)(F)F	-1.8	0.78
C[C@@H]1C[C@H]2[C@@H]3CCC4=CC(=O)C=C[C@]4(C)[C@@]3(F)[C@@H](O)C[C@]2(C)[C@@]1(O)C(=O)CO	-3.0	0.52&0.086
CC1(C)CC(=O)C=C(NC(=O)Nc2ccc(Cl)cc2)C1	1.4	0.18
O=C(NCC1CCCO1)c1ccccc1NS(=O)(=O)c1cccs1 (stereo not given)	0.9	0.19
CN(Cc1c(F)cccc1Cl)Cn1nnc(-c2ccccc2)n1	-0.9	x
COc1ccc(-c2nocc2C#N)cc1	1.5	1.3
CC(C)(C)c1cc(NC(=O)CSc2nc3ccccc3c(=O)n2-c2ccc(Cl)cc2)on1	-1.6	x
O=C(Cc1csc(NC(=O)c2ccco2)n1)NC1CCCCCC1	-0.8	x
CCCCCCN1C(=O)CSC1c1ccccc1 (stereo not given)	3.5	-0.41
Cc1nnc(SCC(=O)N2CCCC2)n(N)c1=O	-2.8	2.1
COc1ccc2cc3c(N)c(C(=O)Nc4ncc(C)s4)sc3nc2c1	-10	0.33
Cn1c(N)c(C(=O)COC(=O)C2=NNC(=O)CC2)c(=O)n(C)c1=O	7.5	x
Cc1ccc(-c2nn(CCC(=O)NCCN3CCOCC3)c(=O)c3ccccc23)cc1	2.5	0.1
O=C(NCC1CCCCC1)C1CCN(c2cnccn2)CC1	0.8	0.6
Cc1ccc(C=Nc2ccc(C(N)=O)cc2)o1	-3.2	0.35
CC1CCCCN1C(=O)C12CCC(C)(C(=O)C1)C2(C)C (stereo not given)	0.4	-0.026
Cc1ccc2ncc(C(=O)N3CCc4ccccc4C3)c(=O)n2c1	0.7	0.11
CCOC(=O)C1CCN(c2c(S(=O)(=O)c3ccccc3)cnc3ccc(F)cc23)CC1	-2.2	0.44
Cc1[nH]c2ccc(C(=O)OCc3nnc(-c4ccccc4)o3)cc2c1C	-0.9	x
C=CCNC(=O)CN1CCN(c2ccccc2)CC1	-1.7	0.59
C=CCNC(=O)COc1cc(C)c(Cl)c(C)c1	-5.5	1.5
C#CCOC(=O)Nc1cnc(OC)c(C(F)(F)F)c1	0.5	0.59
CCCCSC1=C(C#N)C(=O)NC(c2ccco2)S1 (stereo not given)	3.8	-0.94
Cc1cc(C)n(CCCNC(=O)CSc2nc(-c3ccccc3)c(-c3ccccc3)o2)n1	-1.6	x
O=C(O)c1cccc(N2C(=O)/C(=C\C=C\c3ccco3)SC2=S)c1	24	-0.7
COCCn1nnnc1CN1CCC(NC(=O)Nc2cccc(OC)c2)CC1	-2.5	0.96

5 entries already listed, sorted by number of heavy atoms, smallest number first:
SMILES	Ab BasE inh	KSHV LANA nucl
O=c1[nH]nc(-c2cccs2)c2ccccc12	0.1	x
Cn1c(-c2ccccc2)nn(CN2CCC(C(N)=O)CC2)c1=S	1.1	x
COc1ccc(NC(=O)c2nn(-c3ccccc3)ccc2=O)cc1	-1.0	0.1
Cc1[nH]c2ccc(C(=O)OCc3nnc(-c4ccccc4)o3)cc2c1C	-0.9	x
Cc1ccc(-c2nn(CCC(=O)NCCN3CCOCC3)c(=O)c3ccccc23)cc1	2.5	0.1

(continued)
SMILES	Ab BasE inh	KSHV LANA nucl
CCNc1ccc(P(=O)(CC)CC)cc1	2.0	x
N#Cc1c(/N=C/c2c[nH]c3ccccc23)oc(-c2ccccc2)c1-c1ccccc1	12	-0.41
O=C(CN1C(=O)/C(=C\c2cccc(Cl)c2)Oc2ccccc21)NCCN1CCCC1	-22	0.16
COC(=O)c1ccc(-n2c(C)cc(C(=O)CSc3nncs3)c2C)cc1	0.2	x
O=c1cc(-c2ccc(-c3ccccc3)cc2)[nH][nH]1	2.1	-2
CCN1CCCC1CNC(=S)NCc1ccccc1 (stereo not given)	0.8	x
C#C[C@]1(O)CC[C@H]2[C@@H]3[C@H](C)CC4=C(CCC(=O)C4)[C@H]3CC[C@@]21C	x	0.57&-0.64
Cc1cccc(C)c1OCC(=O)NCc1nnc(SCC(=O)NC2CCCCC2C)n1C (stereo not given)	6.1	0.34
N=c1n(CCN2CCCCC2)c2ccccc2n1CC(O)c1cccs1 (stereo not given)	-0.3	-0.96
COC(=O)C(NC(=O)c1cn(C)nc1C(F)(F)F)c1ccccc1 (stereo not given)	x	-0.45
Fc1ccccc1N1CCN(Cn2nc(-c3ccco3)oc2=S)CC1	-0.1	x
COc1ccc(N=Cc2oc(O)c3ccccc23)cc1	x	-1.3
CN(C(=O)C1CCC(CNS(=O)(=O)c2cccc3nsnc23)CC1)C1CCCCC1 (stereo not given)	7.6	-0.69
COc1ccc(OCC(=O)N2c3ccccc3Sc3ccccc32)cc1	2.0	x
COC(=O)c1ccc(OC)c(Cn2c(=O)n(C)c(=O)c3ccccc32)c1	1.7	-2.6

Four compounds drawn at random from the list so far, as already listed:
SMILES	Ab BasE inh	KSHV LANA nucl
CC(C)(C)c1cc(NC(=O)CSc2nc3ccccc3c(=O)n2-c2ccc(Cl)cc2)on1	-1.6	x
Cn1c(C2CC(=O)N(Cc3cccs3)C2)nc2ccccc21 (stereo not given)	-16	-1.9
COc1ccc2c(c1)CCc1cn3ncc(C#N)c3nc1-2	x	0.15
CCN1C(=O)CC(Sc2ccccc2N)C1=O (stereo not given)	1.0	0.42
